Sfp PPTase inh: qHTS Assay for Inhibitors of Bacillus subtilis Sfp phosphopantetheinyl transferase (PPTase) | Biochemical Sfp PPTase activity, qHTS | Potency, µM, without a hit: max response, negative = inhibition, actives largely listed as inhibitors | 3.5% of 310,000 active | AID 1490, 2009; active means well fitted inhibition curve with a large enough effect; inconclusive means small, poorly fitted or top-dose-only effect, or another doubt; inactive means no such curve, though single readings can be large or run the other way;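 further: the enzyme is Sfp with the accession as filed and its product quenches rhodamine fluorescence; potency means the concentration at half of the fitted maximal effect; 0% = enzyme reaction without inhibitor and -100% = no enzyme wells; top concentration of the series not given in the record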
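Step 1, compound plus 15 nM Sfp-PPTase, 15 min, room temperature. Step 2, add rhodamine-CoA (5 uM) and BHQ-2-YbbR (12.5 uM). Step 3, read 525/598 nm fluorescence at 0 and 30 min.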
D2 PAM: Beta-Arrestin HTS for Positive Allosteric Modulators of the Human D2 Dopamine Receptor: Potentiators; D(2) dopamine receptor (Homo sapiens), P14416; DiscoveRx D2 beta-arrestin cells, luminescence, 90 min; 100% = 57 uM dopamine signal; potentiation, % (concentration not given with the values); 0.23% of 360,000 active; AID 624464, 2012; active = potentiation of 50% or more; inconclusive = 30% to 50%; inactive = 30% or less;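 further: compound concentration not given in the record; tested on top of an EC20 dose of dopamine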
Target sequence (P14416 whole entry, looked up): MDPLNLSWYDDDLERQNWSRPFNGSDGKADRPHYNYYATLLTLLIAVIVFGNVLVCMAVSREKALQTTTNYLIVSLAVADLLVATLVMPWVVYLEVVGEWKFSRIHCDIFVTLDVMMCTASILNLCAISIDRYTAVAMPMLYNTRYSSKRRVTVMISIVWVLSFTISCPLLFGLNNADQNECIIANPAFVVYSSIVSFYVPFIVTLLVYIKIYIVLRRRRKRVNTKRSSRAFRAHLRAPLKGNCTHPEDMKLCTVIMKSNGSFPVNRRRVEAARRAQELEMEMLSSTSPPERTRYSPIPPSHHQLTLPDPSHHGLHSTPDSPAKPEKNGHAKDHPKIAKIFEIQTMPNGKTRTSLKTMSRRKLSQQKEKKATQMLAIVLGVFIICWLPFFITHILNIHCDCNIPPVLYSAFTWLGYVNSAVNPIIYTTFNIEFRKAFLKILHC
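PathHunter beta-arrestin assay in DiscoveRx D2 cells. Compounds were added with an EC20 of dopamine (50 nM final) for 90 min at 37 deg C. Luminescence was read 1 h after detection reagent, with 57 uM dopamine as the EC100 control.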
gsp antag: qHTS for Antagonists of gsp, the Etiologic Mutation Responsible for Fibrous Dysplasia/McCune-Albright Syndrome: qHTS. gsp-mutant cells, cAMP HTRF, 30 min; control for the full effect not named in the record. Potency, µM (doses to about 76.9 µM), for the others: top-dose activity change, negative = inhibition, hits mostly inhibitors. 0.4% of 340,000 active; active = falling curve of any shape with a large fitted effect; inconclusive = falling curve, mostly with a smaller effect; inactive = flat or rising curve; cell line not stated here;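 further: intracellular cAMP measured with PDE inhibitor Ro 20-1724 present during compound exposure; potency means the concentration at half of the fitted maximal effect; on the % scale 0 is the no-effect control and ±100 the full control effect; nearly all actives have a fitted effect of over 65% in size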
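HTRF cAMP read-out (cAMP-d2 plus anti-cAMP antibody-K in lysis buffer, 30 min RT). Before lysis, cells are exposed to compounds with […] for 30 min at 37C in DPBS containing Ca/Mg, BSA and Tween 20.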
gsp ag: qHTS for Agonist of gsp, the Etiologic Mutation Responsible for Fibrous Dysplasia/McCune-Albright Syndrome: qHTS | 0.13% of 340,000 active | AID 624287, 2012 | gsp mutant cells, cAMP HTRF, 30 min; control for the full effect not named in the record | Potency, µM (highest dose often 76.9 µM), without a hit: at the top dose activation (cAMP increase), usual class: activators; active = well fitted activation curve with a large enough effect; inconclusive = small, poorly fitted or top-dose-only effect, or another doubt; inactive = no such curve, though single readings can be large or run the other way; cell line not stated here;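 further: phosphodiesterase inhibitor Ro 20-1724 added with compounds to block cAMP breakdown; potency means the concentration at half of the fitted maximal effect; nearly all actives have a fitted effect of over 60% in size; about a fifth of the inactives were tested at one dose only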
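Cells in DMEM/10% FBS with G418 were pretreated with compounds in DMSO plus […] (300 uM stock) for 30 min at 37C. cAMP was measured by HTRF (cAMP-d2 plus anti-cAMP antibody-K) after 30 min at room temperature.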
ClpP mod: qHTS Assay for Activators of ClpP; 1.9% of 340,000 active; purified B. subtilis ClpP, FRET peptide cleavage, 20 min; Potency, µM (highest dose often 57.5 µM), without a hit: at the top dose activity change, negative = active; ATP-dependent Clp protease proteolytic subunit (Bacillus subtilis (strain 168)), P80244; active = well fitted falling curve with a large enough effect; inconclusive = small, poorly fitted or top-dose-only effect; inactive = no such curve, though single readings can be large or run the other way; further: potency means the concentration at half of the fitted maximal effect; the source files actives as falling curves though it sought activators and does not explain the sign; nearly all actives have a fitted effect of over 65% in size; many hits overshoot -100%
Target sequence (P80244 whole entry, looked up): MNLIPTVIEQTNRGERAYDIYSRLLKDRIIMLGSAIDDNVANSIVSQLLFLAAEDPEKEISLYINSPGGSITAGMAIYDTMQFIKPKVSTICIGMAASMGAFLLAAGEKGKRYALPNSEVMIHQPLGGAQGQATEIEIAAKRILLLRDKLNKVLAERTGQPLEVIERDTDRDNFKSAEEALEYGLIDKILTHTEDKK
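Buffer: 100 mM Tris/HCl pH8, 100 mM KCl, 0.05% low protease BSA, 2.5% glycerol, 0.01% Tween-20. ClpP 10 microg/mL final; 20 min RT; delta FRET normalized to ADEP and DMSO controls.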
Menin MLL FP FL: qHTS Assay for Inhibitors Targeting the Menin-MLL Interaction in MLL Related Leukemias: Competition With Fluorescein Labeled MLL-derived Peptide; Fluorescence polarization, fluorescein-MLL peptide displacement from menin; 290,000 tested, under 10 active; FP activity change, % at 61.4 µM; inconclusive = falling polarisation curve, or a change in total fluorescence; inactive = total fluorescence flat and polarisation flat or rising; no compound was filed as active; the % refers to the polarisation; negative = inhibition;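 further: % of control where 0% means no effect; inhibitors lower the polarisation; unlabelled MLL peptide was the positive control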
TRPV1 PAM: HTS Assay for Compounds that Act as Potentiators of the Vanilloid Receptor 1. AID 540277, 2011. potentiation, % at 8.33 µM. 0.02% of 320,000 active. TRPV1-expressing cells, Fluo-8 calcium influx, capsaicin EC20 potentiation; host cell line not named in the record; control for the full effect not named in the record; active means potentiation above 80%; inconclusive means 30% to 80%; inactive means below 30%; further: 0% is about no effect
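Fluo-8 calcium influx in TRPV1-expressing cells, kinetic read (ex 480/em 520 nm). Compound added and read 3 min for agonist activity, followed by capsaicin at EC20 final and 2 min further read for enhancement.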
An asterisk follows results filed as active; u = inconclusive; x = not tested or not shown; [ ] = dose if it differs, or a comment. Hits appear at their usual frequency. About 5.1% of those tested had a hit in this group.

Preview (3 entries):
SMILES | Sfp PPTase inh | D2 PAM | gsp antag | gsp ag | ClpP mod | Menin MLL FP FL | TRPV1 PAM
O=C(N/C(=C\c1cccnc1)C(=O)N1CCCCC1)c1cccc(Br)c1 | 17% | -4 | 6% | 5% | x | 1.5 | 5
CCOC(=O)CN(C(=O)c1ccccc1)c1ccccc1C | 12% | 1 | -2% | 6% | -0.9% | 2.3 | -4
CCC(Cc1ccccc1)NC(=O)C1CCN(S(=O)(=O)c2c(C)noc2C)CC1 (stereo not given) | -11% | 9 | 6% | -7% | 0.6% | 2.2 | 19

Results, previewed entries included:
SMILES | Sfp PPTase inh | D2 PAM | gsp antag | gsp ag | ClpP mod | Menin MLL FP FL | TRPV1 PAM
O=C(N/C(=C\c1cccnc1)C(=O)N1CCCCC1)c1cccc(Br)c1 | 17% | -4 | 6% | 5% | x | 1.5 | 5
CCOC(=O)CN(C(=O)c1ccccc1)c1ccccc1C | 12% | 1 | -2% | 6% | -0.9% | 2.3 | -4
CCC(Cc1ccccc1)NC(=O)C1CCN(S(=O)(=O)c2c(C)noc2C)CC1 (stereo not given) | -11% | 9 | 6% | -7% | 0.6% | 2.2 | 19
Fc1ccc(CNc2nc3ccccc3n3nnnc23)cc1 | -30% | -5 | 4% | u | u | u | x
CCOC(=O)CNC(=O)CSc1nnc(-c2ccccc2)n1Cc1ccco1 | 13µM* | 2 | 6% | 8% | -3.2% | 4.8 | -15
COc1ccccc1CN1CCNC(=O)C1CC(=O)N(C)Cc1nc(C)cs1 (stereo not given) | -6% | -8 | 3% | 2%[15.4 µM] | 0.2% | -4.8 | 2
Nc1nc(Nc2cccc(Cl)c2)nc(NCc2ccco2)c1[N+](=O)[O-] | -12% | -1 | 3% | u | x | 3.1 | u
CC(NC(=O)/C=C/c1ccco1)c1nc2ccccc2n1Cc1c(Cl)cccc1Cl (stereo not given) | 50µM* | 1 | -15% | -19% | -0.8% | 3.4 | 7
Cc1ccc(S(=O)(=O)N(C)C)cc1NC(=O)CSc1nncs1 | x | -27 | 0% | -6%[15.4 µM] | -6.0% | x | 17
Cc1cc(C(=O)OCC(=O)N2CC(C)OC(C)C2)ccc1[N+](=O)[O-] (stereo not given) | -13% | -6 | 1% | 3% | 0.9% | -0.1 | 15
Cc1cc(C)nc(NC(=O)c2ccccc2O)n1 | 3% | -8 | -3% | 12% | -0.6% | 0.3 | -10
COCC(=O)Oc1cc(-c2ccc(C)cc2C)c(OC(=O)COC)c(-c2ccc(C)cc2C)c1 | x | -1 | x | -37%[inhibitor] | 3.4% | x | x
CCCc1nnc(NC(=O)c2ccc([N+](=O)[O-])cc2)s1 | 13% | 3 | 8% | 3%[15.4 µM] | -0.3% | -0.3 | -8
O=C(O)c1ccc2c(=O)n(-c3ccc(F)cc3)c(=S)[nH]c2c1 | u | -13 | 9% | -19% | -6.3% | 5.2 | -5
c1ccc2c(Cn3nnc4ccccc43)cccc2c1 | -8% | -26 | -10% | 8% | -0.6% | 2.2 | -9
Cc1cccc(C)c1NC(=O)C1CCCN1S(=O)(=O)c1ccc2c(c1)n(C)c(=O)c(=O)n2C (stereo not given) | 14% | -1 | -2% | u | -22% | -7.9 | 25
Cc1cccc(N2CCN(S(=O)(=O)c3ccc4c(c3)C(C)(C)C(=O)N4C)CC2)c1C | -5% | -9 | -11% | -10% | -3.6% | 6.1 | 7
Cc1cc(C)n(C(C)CNC(=O)c2ccc3c(c2)OCO3)n1 (stereo not given) | 12% | -4 | 2% | u | x | -1.9 | -9
CC1Cc2ccccc2N1C(=O)CSc1nc2c(c(=O)n(C)c(=O)n2C)n1Cc1ccccc1 (stereo not given) | u | -5 | 0% | 27% | 0.4% | 2.8 | 0
Clc1ccc(-c2nnnn2-c2ccc(Cl)cc2)cc1 | 16% | -10 | 5% | 18% | x | 3.5 | -26
Cc1nc(SCC(=O)Nc2cccnc2Cl)nc(C)c1C | -24% | -4 | 3% | 4%[15.4 µM] | x | 3.5 | 1
CCOc1cc(/C=N/NC(=O)c2nnn(-c3nonc3N)c2C)ccc1OCc1ccc(C)cc1 | x | -7 | x | -25% | 3.7% | x | x
O=S(=O)(c1cc(Cl)cc(Cl)c1O)N1CCC2(CC1)OCCO2 | 6% | 4 | 3% | -79% | -14% | x | 19
Cc1ccccc1S(=O)(=O)Cc1ccc(C(=O)NCCN(Cc2ccccc2)C(C)C)o1 | 14% | -22 | 6% | 20% | x | x | -1
Cc1ccc(-c2cn3cccnc3n2)cc1NC(=O)c1c(-c2ccccc2Cl)noc1C | -2% | -6 | 13% | 11% | -13% | 1.7 | 11

3 structures from above, arranged by SMILES length, smallest number first:
SMILES | Sfp PPTase inh | D2 PAM | gsp antag | gsp ag | ClpP mod | Menin MLL FP FL | TRPV1 PAM
CCOC(=O)CNC(=O)CSc1nnc(-c2ccccc2)n1Cc1ccco1 | 13µM* | 2 | 6% | 8% | -3.2% | 4.8 | -15
CC(NC(=O)/C=C/c1ccco1)c1nc2ccccc2n1Cc1c(Cl)cccc1Cl (stereo not given) | 50µM* | 1 | -15% | -19% | -0.8% | 3.4 | 7
Cc1cccc(N2CCN(S(=O)(=O)c3ccc4c(c3)C(C)(C)C(=O)N4C)CC2)c1C | -5% | -9 | -11% | -10% | -3.6% | 6.1 | 7

Additional structures
SMILES | Sfp PPTase inh | D2 PAM | gsp antag | gsp ag | ClpP mod | Menin MLL FP FL | TRPV1 PAM
CC(C)c1ccc(NC(=O)CCS(=O)(=O)c2cccc3nonc23)cc1 | 1% | -10 | 5% | 9%[15.4 µM] | 2.3% | 0.7 | -10
CCOC(=O)C1CCN(CC(O)COc2ccc(C(C)(C)C)cc2)CC1 (stereo not given) | -7% | -7 | 9% | -17% | -0.5% | -1.7 | 0
COc1ccc(NCc2cc(=O)[nH]c3ccccc23)cc1 | 2% | -6 | -40% | -6%[15.4 µM] | -12% | -21 | 7
CC(C)C(=O)N1CCN(c2cc(N3CCN(C)CC3)c(F)cc2[N+](=O)[O-])CC1 | 2% | -27 | 5% | -5%[15.4 µM] | -1.6% | 1.1 | -5
Cn1c(SCC(=O)N2CCCC2)nnc1-c1ccc(S(=O)(=O)N2CCCC2)cc1 | 7% | 5 | -8% | u | -23% | 4.2 | -9
CCCCOC(=O)C1C2C=C[C@]3(CN(CCCOC)C(=O)[C@H]13)O2 (stereo not given in full) | 4% | -8 | 4% | 0% | -6.0% | -0.3 | 3
NC(=S)N/N=C/c1ccc(C(F)(F)F)cc1 | -16% | -2 | 11% | 11% | 2.2% | 2.4 | -4
Cc1ccc(CS(=O)(=O)CCC(=O)O)cc1 | -10% | 3 | 5% | 2% | -5.5% | 6.8 | 3
CN(C)CC[n+]1ccc(C(=O)c2ccccc2)cc1 | -3% | 3 | 1% | 4%[15.4 µM] | -2.9% | -23 | -4
CC(=O)Nc1ccc(C(=O)OCC(=O)NCCC2=CCCCC2)cc1 | x | -30 | -2% | u | -1.9% | x | 0
Cc1ccc(NCc2ccccc2O)cc1 | -4% | -16 | 3% | -57% | -0.9% | -0.4 | 3
O=S(=O)(c1ccc(Oc2ccc(Br)cc2)cc1)N1CCOCC1 | 3% | 2 | 3% | -5% | -0.3% | -4.9 | 3
Cc1ccc(C(=O)NCC(=O)N/N=C/c2cccs2)cc1[N+](=O)[O-] | 10% | -11 | -7% | -55%[inhibitor] | 0.6% | 1.6 | 4
COc1ccc(C(=O)NCCc2cnc[nH]2)cc1OC | 8% | -18 | 11% | 26% | x | 6.9 | -6
NS(=O)(=O)c1ccc(NC(=O)COC(=O)C2(c3ccc(F)cc3)CCCC2)cc1 | -4% | 2 | -14% | -16% | 28µM* | 13 | -10
CCOc1ccc(NC(=O)Nc2cccs2)cc1 | 56µM* | -8 | -24% | 26% | -1.0% | 5.5 | 9
O=C(Nc1cccc(-c2ccccc2)c1)N1CCN(C(=O)Nc2cccc(-c3ccccc3)c2)CC1 | 13% | 4 | 4% | 8%[15.4 µM] | x | 0.4 | 0
O=C(NNC(=O)c1csc(-c2cnccc2C(F)(F)F)n1)c1ccc(C(F)(F)F)cc1 | 35%[activator] | -2 | 10% | 2%[15.4 µM] | 0.2% | -3.1 | -44
COc1ccc(S(=O)(=O)N2CCOC2CNC(=O)C(=O)NCCN2CCOCC2)cc1C (stereo not given) | 20% | 24 | 5% | 3% | 0.3% | x | 2
CC1CCCC(C)N1CC(O)Cn1c2ccccc2c2ccccc21 (stereo not given) | 17% | 5 | 6% | 4% | -4.2% | 0.2 | 4
NC(=O)CSc1nnc(NC(=O)c2ccc(S(=O)(=O)N3CCCCC3)cc2)s1 | x | -27 | 0% | -3%[15.4 µM] | 1.0% | x | 16
O=C(Cc1ccc2c(c1)OCCO2)N1CCN(S(=O)(=O)c2cccs2)CC1 | 9% | -3 | -25% | 9%[15.4 µM] | -2.0% | -0.3 | -6
Cc1ccc(S(=O)(=O)NC(C)c2ccccc2)cc1[N+](=O)[O-] (stereo not given) | 12% | -4 | -4% | 2% | x | -1.2 | -7
N#C/C(=C(/O)CCl)c1nc2ccccc2[nH]1 | -23% | 7 | -10% | 0%[15.4 µM] | 0.6% | u | -2
CCN(CC)CCCN1C(=O)C(O)=C(C(=O)c2ccco2)C1c1ccc(OC(C)C)cc1 (stereo not given) | 14% | 10 | 2% | 1% | -3.8% | 2.7 | -11
CCOC(=O)N1CCN(C(=O)CCSc2ccc(C)cc2)CC1 | 9% | 1 | -4% | -13% | -2.6% | 6.7 | u
O=C(COC(=O)c1ccccc1Br)Nc1ccccc1F | 5% | -6 | -1% | 18% | x | 0.4 | -8
